Source: PubChem
Autofluor counter – compound fluorescence in toxin protease inhibitor counterscreen; fluorescence intensity (concentration not given with the values); 360,000 compounds, 3.1% hits; compound autofluorescence counterscreen, microsphere flow cytometry; active compounds read high;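 active means at least 3 SD above the mean of all compounds, about 16000 in these data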;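 further: 100 nL of 1 mM stock went into each well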
An asterisk follows results filed as active. Not all compounds are listed; rates above refer to the full screens.

molecule,Autofluor counter
CN1CCN(C(=O)c2cc3c(c(-c4cccc(C#CC(C)(C)O)c4)n2)[C@@H](CCO)N(S(=O)C(C)(C)C)C3)CC1 (some centres not stated),5610
CC(C)NC(=O)OCc1c(COC(=O)NC(C)C)c([N+](=O)[O-])n2c1CCC2,5237
CC1(Oc2cccc(C#N)c2)CCN(Cc2ccccc2OC(F)F)C1 (configuration not stated),4131
C[C@H]1CN([C@@H](C)CO)C(=O)CCCn2nncc2CO[C@H]1CN(C)S(=O)(=O)c1ccc(Oc2ccccc2)cc1,3554
O=C(Nc1ccc(F)c(Cl)c1)c1cc(C2CCCCN2C(=O)CCCc2ccccc2)on1 (configuration not stated),3666
CC(=O)C1=CCC(c2ccc(C)o2)N(S(=O)(=O)c2ccc(C)cc2)C1 (configuration not stated),6017
CCOC1=C2[C@@H](CN(S(=O)(=O)c3ccccc3C)[C@H]2c2ccc(Cl)cc2)[C@H]2C(=O)NC(=O)[C@H]2C1,6301
COc1cccc(-n2c(SCC(=O)NC3CC3)nc3ccccc3c2=O)c1,3749
COc1ccc(-c2ccc(C(=O)NCc3ccc(F)c(F)c3)c3occc23)c(C)c1,3503
COc1ccc(CNC(=O)CCNC(=O)C2CCN(S(=O)(=O)c3ccc(OC)cc3)CC2)cc1,3052
CC(C)=CCn1c2ccc(NC(=O)Nc3cccnc3)cc2c(=O)n1C,4077
CC1(C(=O)NS(=O)(=O)c2ccc(C#N)cc2)CCN1C(=O)CCc1ccc(Cl)cc1Cl (configuration not stated),3426
COc1ccc(CC(=O)Nc2nc(OCC(F)(F)F)cnc2-c2ccc(Cl)cc2Cl)cc1,3305
CC(C)C[C@H]1CN(CCCC[C@H]2CNC(=O)C(=O)N2CCc2ccccc2)C(=O)C(=O)N1Cc1ccccc1,5733
C[C@@H]1CCCCO[C@@H](CN(C)Cc2ccncc2)[C@@H](C)CN([C@H](C)CO)C(=O)c2cc(NC(=O)c3ccccc3)ccc2O1,3663
CC(C)(C)CNC(=O)c1cc2c(Br)ccc(Br)c2nc1N,6263
CCCCNC(=O)C1(C)CCN1C(=O)c1cc(-c2ccccc2)cs1 (configuration not stated),4030
CCOC(=O)[C@]12Cc3ccccc3[C@H]1N(CCC(=O)OC)C(=O)c1cc(OC)ccc12,5498
O=C(Cc1ccc(Cl)cc1)Nc1cccnc1Cl,3426
CN(Cc1ccccc1)C(=O)Cn1nnc(-c2ccccc2)c1COc1ccccc1,2861
O=C(NCc1ccncc1)[C@@H]1CCCN1C(=O)[C@@H]1CCCN1C(=O)c1c(F)cccc1F,5944
COc1cccc(CNC(=O)[C@@H]2CCCN2C(=O)[C@@H]2CCCN2C(=O)OC(C)(C)C)c1,5418
CC(=O)c1c(O)c(C)c(O)c2c1OC1=CC(=O)/C(=C(/C)N)C(=O)C12C (configuration not stated),2888
CCCCNC(=O)C1c2ccccc2OCC(=O)N1Cc1ccccn1 (configuration not stated),5547
CC(=O)OC[C@@H]1CN(Cc2ccccc2)C[C@H](n2cnc3c(NCc4ccc(F)cc4)ncnc32)O1,3644
Cc1c(O)cnc2nn(-c3ccccc3)c(=N)n12,6240
COc1cc(CN2CCC(C(=O)NC(C)(C)C)CC2)ccc1OCc1ccccc1,4027
CCOC(=O)C(=O)Nc1ccc(S(=O)(=O)Nc2nccc(C)n2)cc1,3645
O=C(OCc1cn([C@@H]2C[C@H](c3ccc(Cl)cc3)N(Cc3cccs3)C[C@H]2O)nn1)c1ccccc1,3812
CCN(CC)C(=O)c1cccc(-c2csc(C(C)(O)c3ccc(F)c(F)c3)n2)c1 (configuration not stated),2788
OC[C@H]1O[C@@H](c2nc(-c3ccc(Br)cc3)no2)C[C@@H]1O,3694
CCN1CCN(CCNC(=O)c2ccc3c(c2)NC(=O)/C(=C\c2cccc(Cl)c2)S3)CC1,4565
CC1(C)OC(=O)C2=C(C[C@@H](C3CCCC3)O[C@H]2c2ccc(Cl)cc2)O1,4177
CC1(C(=O)NCc2cccc(Cl)c2)Cc2c(-c3cccc(C(N)=O)c3)ccnc2O1 (configuration not stated),3004
O=C(NCc1ccc(F)cc1)c1cc(C2CCCCN2C(=O)c2ccc(Cl)cc2)on1 (configuration not stated),3531
C#Cc1cccc(Nc2nc(NCCOC)nc3ccsc23)c1,3540
COc1ccc(C(O)c2ncc(-c3cccc(OC)c3)[nH]2)cc1 (configuration not stated),3928
CCCCN1C(=O)C(CC(=O)NCCc2ccccn2)CC(C(=O)N(CC)CC)=C1C (configuration not stated),2957
CCOC(=O)CNC(=O)N1Cc2ccc(Br)cc2-n2nncc2C1,5949
CC1(C(=O)NS(=O)(=O)c2ccc(Br)cc2)CCN1C(=O)CCc1cccs1 (configuration not stated),2923
O=C(Cc1cccc2ccccc12)NN=Cc1ccc2c(c1)CCC2,2790
CC(C)(C)n1nnnc1C(CCc1ccccc1)N1CCN(C/C=C/c2ccccc2)CC1 (configuration not stated),4568
COc1ccc(C(NC(=O)C2CCN(C/C=C/c3ccc(OC(C)=O)c(OC)c3)CC2)c2ccccn2)cc1 (configuration not stated),4050
N#CC(Cc1cccs1)c1nc2ccccc2[nH]1 (configuration not stated),4073
CC(C)Nc1ncnc2c1ncn2[C@H]1CN(Cc2cccnc2)C[C@@H](CO)O1,2820
CCc1nc2c(OCCn3cccc3)cccn2c1N(C)C(=O)c1cccs1,3537
CN(C)C(=O)c1ccc(NC(=O)c2cccc(-n3cnnn3)c2)cc1,3017
C=C1C(=O)[C@]23C[C@H]1CC[C@H]2[C@]1(C)[C@@H](OC(C)=O)CC[C@@](C)(C(=O)OC)[C@H]1C[C@@H]3OC(C)=O,6124
COCc1cccc(-c2csc(C(C)(O)c3ccccc3)n2)c1 (configuration not stated),2909
COc1ccc(CCNC(=O)c2ccc3c(c2)S(=O)(=O)N=C2CCCCCN23)cc1OC,3922

Further structures:
molecule,Autofluor counter
CCCCNC(=O)C1(C)CCN1C(=O)c1ccc2c(c1)CCO2 (configuration not stated),3452
O=C(COc1ccc(F)cc1Br)Nc1ccccc1N1CCCC1,3795
CCOC(=O)c1cc2ccccc2n1C1CCN(CCc2ccccc2)CC1,5351
CCCCN1C(=O)C(CC(=O)NC(c2ccccc2)c2ccccc2)CC(C(=O)N2CCCCCC2)=C1C (configuration not stated),5816
CC1(C(=O)NS(=O)(=O)c2ccc3ccccc3c2)CCN1C(=O)Cc1ccc(-c2ccccc2)cc1 (configuration not stated),3398
CC1C(O)=C(c2ccccc2)P(=O)(Cc2ccccc2)C1C (configuration not stated),4110
Clc1ccc2nc(C3CCCCC3)c(CC3CCCCC3)n2c1,5620
CCC(=O)c1cn(CC(=O)Nc2ccc(F)cc2)c2ccccc12,3733
CC(C)n1ncc2c(C(=O)Nc3ccccc3SCC(N)=O)cc(C3CC3)nc21,3987
Cc1ccc(S(=O)(=O)N2CCN(C(=O)N3CCCCC3)CC2)c(C)c1,3937
C(=C\c1ccccc1)/CN1CCN(C(c2ccnc3ccccc23)c2nnnn2C2CCCC2)CC1 (configuration not stated),4785
Cc1nc2ccccc2nc1CC(O)(c1ccccc1)c1ccccc1,3424
COc1ccc(Nc2c(CC(C)C)nc3nc(C)cc(C)n23)cc1,6138
C[C@H](CO)N1C[C@H](C)[C@@H](CN(C)Cc2ccncc2)Oc2ncc(Br)cc2C1=O,2926
Cc1ccc([C@H]2N[C@]3(CCCN(Cc4cccn4C)C3=O)[C@H]3C(=O)N(Cc4ccccc4)C(=O)[C@@H]23)cc1,4057
O=C(C[C@H]1C[C@@H]2c3cc(NC(=O)Nc4ccccc4)ccc3O[C@@H]2[C@@H](CO)O1)NCC1CC1,3535
O=S(=O)(Cc1nnnn1-c1ccc(Br)cc1)c1ccccc1,3835
CCc1nc2ccc(C(=O)N3CCC(O)(Cc4ccccc4)CC3)cn2c1N(C)C(=O)Cc1ccccc1,3517
CCCS(=O)(=O)NC(=O)C1(C)CCN(C(=O)c2ccc3ccccc3n2)C1 (configuration not stated),2993
CS(=O)(=O)N(CC(=O)N1CCCC1)c1ccc(F)cc1,3576
COc1ncnc2c1ncn2CCCN(C)CCc1ccccn1,3029
Cc1c(C(=O)NCc2ccc(F)cc2)sc(=O)n1Cc1ccc(Cl)c(Cl)c1,5396
COc1ccc(F)cc1-c1cc(C(=O)NCc2cc(C(F)(F)F)cc(C(F)(F)F)c2)[nH]n1,3505
CC1(C)Cc2c(sc(NC(=O)Cc3ccccc3)c2C#N)C(C)(C)N1,3747
O=c1[nH][nH]c2c1[C@H](c1ccc(F)cc1)O[C@H](C1CCCCC1)C2,5640

4 entries from above, field by field:
structure: Clc1ccc2nc(C3CCCCC3)c(CC3CCCCC3)n2c1
  Autofluor counter: 5620
structure: Cc1ccc([C@H]2N[C@]3(CCCN(Cc4cccn4C)C3=O)[C@H]3C(=O)N(Cc4ccccc4)C(=O)[C@@H]23)cc1
  Autofluor counter: 4057
structure: CCCCN1C(=O)C(CC(=O)NC(c2ccccc2)c2ccccc2)CC(C(=O)N2CCCCCC2)=C1C (configuration not stated)
  Autofluor counter: 5816
structure: O=c1[nH][nH]c2c1[C@H](c1ccc(F)cc1)O[C@H](C1CCCCC1)C2
  Autofluor counter: 5640

(further entries)
molecule,Autofluor counter
C[C@@H]1CN([C@@H](C)CO)C(=O)CCCn2cc(nn2)CO[C@H]1CN(C)C(=O)OCc1ccccc1,3979
c1ccc(CN=C2CCCc3ccccc3N2)cc1,3809
CC1(C(=O)NCc2ccco2)Cc2c(-c3ccccc3)ccnc2O1 (configuration not stated),3132
CC(=O)N1CCC(C(=O)Nc2cc(S(=O)(=O)N3CCCCC3)ccc2C)CC1,3969
CC(C)(C)C(=O)N1Cc2cc(N3CCOCC3)ccc2-n2nncc2C1,4428
C[C@@H]1CCCCO[C@@H](CN(C)C(=O)CCCN(C)C)[C@@H](C)CN([C@H](C)CO)C(=O)c2cc(NC(=O)CCC(F)(F)F)ccc2O1,4079
O=C(NCc1cccc(C(F)(F)F)c1)c1csc(COCCO)n1,2784
Cc1ccc(Cc2c(-c3ccc(F)cc3)nc3c(C)cc(Br)cn23)cc1,6534
Cc1c(C(=O)NCc2cccc(C(F)(F)F)c2)sc(=O)n1Cc1ccc(C(=O)N(C)C)cc1,5690
COc1ccc([C@@H]2C[C@H]3[C@@H](CN2S(=O)(=O)c2ccccc2)C(=O)C[C@@H](c2ccc(C)cc2)N3S(=O)(=O)c2ccc(C)cc2)cc1,3046
O=C(OCc1cn([C@H]2C[C@H](c3ccc(Cl)cc3)N(C(=O)C3CCCCC3)C[C@@H]2O)nn1)c1ccccc1,3069
CCOC(=O)C1=C[C@@H](CC)N(S(=O)(=O)c2ccc(C)cc2)[C@H]1c1cccs1,5760
CNc1nc(NCCOc2ccccc2Cl)c2sccc2n1,4227
CCCCN(C=O)c1c(CC)nc2ccc(C(=O)N3CCN(C(=O)c4ccco4)CC3)cn12,4024
CC(C)(C)C(=O)c1c(N)[nH]c(C(=O)c2ccccc2)c1-c1ccc(Br)cc1,6129
CCCCN(C)C(=O)c1sc(=O)n(Cc2cc(Cl)ccc2OC)c1C,4087
CCOC(=O)C1(C)CCN1C(=O)COc1ccccc1 (configuration not stated),3689
O=C(NC1CCCCC1)C1c2ccccc2OCC(=O)N1CCCN1CCOCC1 (configuration not stated),5204
COc1ccccc1Cn1c(=S)[nH]c2cc(C(=O)N3CC(C)CC(C)C3)ccc2c1=O (configuration not stated),4100
CC(C)(C)c1ccc(S(=O)(=O)NC(=O)C2(C)CCN2C(=O)CC2CCCCC2)cc1 (configuration not stated),2751
Cc1cccc(C)c1NC(=O)C1(C)CCC(=O)N1CCc1c[nH]c2ccccc12 (configuration not stated),5515
O=C(NC(=S)Nc1ccc([N+](=O)[O-])cc1)c1ccco1,3925
CC(C)NC(=O)C1(C)CCCN1Cc1csc2ccccc12 (configuration not stated),4137
Cc1ccc2ccc(C#N)cc2c1O,3829
CCCS(=O)(=O)NC(=O)C1(C)CCN(C(=O)c2ccccc2F)C1 (configuration not stated),2811
CCOC(=O)C1CCCN(C(=O)c2cccs2)CC1 (configuration not stated),3690
C[C@@H]1CN([C@@H](C)CO)C(=O)c2cc(Br)cnc2O[C@@H]1CN(C)C(=O)C1CCCCC1,3461
COc1ccc(CN(C)C[C@H]2OCCCC[C@@H](C)Oc3ccc(NC(=O)c4ccccc4)cc3C(=O)N([C@H](C)CO)C[C@@H]2C)cc1,2988
C#Cc1ccc(NC(=O)C2(C)CCN2C(=O)Cc2ccc(-c3ccccc3)cc2)cc1 (configuration not stated),3720
O=C(CNc1cccc(S(=O)(=O)N2CCCCC2)c1)Nc1ccc(C(F)(F)F)cc1,3852
CCOC(=O)Cn1nc2oc(=O)c(CCN3CCN(c4ccccc4OC)CC3)c(C)c2c1C,3870
C/C=C/c1cccc(-c2nc(C(=O)N3CCOCC3)cc3c2[C@@H](CCO)N(C(=O)NC(C)C)C3)c1,6097
O=c1[nH]c2ccc(Br)cc2c(=O)o1,3676
CCCCCCNC(=O)O[C@]12C[C@@H](C(=O)OC)[C@@H](C(=O)OC)C[C@@]1(O)CN(S(=O)(=O)c1ccc(C)cc1)C2,3801
Cc1noc(NS(=O)(=O)c2ccc(NS(=O)(=O)c3ccc(C(C)(C)C)cc3)cc2)c1C,4045
Cn1cc(-c2ccc3c(c2)OCO3)c2ccccc21,5305
